Yeast UUG start: modulators of yeast start codon fidelity, primary screen, whole organism, S. cerevisiae, single point, plate reader | S. cerevisiae UUG-firefly luciferase reporter, luminescence/redox ratio | activity score, % at 18.7 µM | actives 0.13% (n = 350,000) | AID 602363, 2012;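 active = replicate mean at a twofold rise or more, about +100% in these data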;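 note: firefly luciferase made from a UUG start codon reports start codon fidelity; reporter light over untreated wells divided by growth signal over untreated wells; some hits fall short of that in this replicate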
MT1-MMP act inh: blockers of MT1-MMP proenzyme processing, primary screen, HT1080 RFP-PRO-GFP cells, GFP/RFP fluorescence | GFP/RFP ratio fluorescence, overnight; percent of plate control window, DMSO zero | GFP/RFP ratio change, % at 20 µM | actives 0.061% (n = 360,000) | AID 651647, 2012;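 active = GFP/RFP ratio change of at least 30% with cell ATP level not reduced by more than half and red fluorescence within 50% of control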; note: strong numbers were not always called active
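Read-out: GFP/RFP fluorescence ratio; Test system: RFP-PRO-GFP reporter HT1080 cells; Compound dosing: single-point 20 µM compound, 1% DMSO; Times: overnight compound exposure at 37 °C.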
Rce1 inhib: yeast Rce1p protease inhibitors, primary screen, biochemical, fluorescence, cell-free homogeneous. yeast membranes, quenched prenylated peptide cleavage fluorescence. CAAX prenyl protease 2 (Saccharomyces cerevisiae (strain ATCC 204508 / S288c)), Q03530. actives 0.27% (n = 290,000). calls only;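 active = fall in fluorescence gain of 50% or more versus controls, with final raw signal at or below 3038400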;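 note: plate controls were neutral control wells for no effect and wells lacking membranes for full effect; tested at 10 µM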
CSC inhib: cancer stem cell viability inhibitors, primary screen, luminescence | inhibition, % at 7.5 µM | actives 1.1% (n = 300,000) | cancer stem cell-like cells viability | AID 2717, 2010;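 active = mean at 75% or more and at least half the replicates too; tested in HMLE shEcad cells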;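 note: 0% = median of negative and 100% = median of positive control wells; the first replicate is given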
HIV Env fusion: inhibitors of HIV-1 Env-driven cell-cell fusion, primary screen, HeLa-JRFL effector, CEM21 target cells, luciferase. inhibition, % at 12.3 µM. actives 1.1% (n = 360,000). AID 651610, 2012;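 active = mean replicate inhibition score of at least 50 and every replicate individually at or above 50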;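 note: 0% = plate neutral controls and 100% = maraviroc near 300 nM; one replicate is shown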
PABP FP inh: PABP poly(A) RNA binding inhibitors, primary screen, biochemical, fluorescence polarization, uHTS. inhibition, % at 35 µM. actives 1% (n = 290,000);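 active = 50% or more with normal probe brightness, or confirmed in later tests; about a fifth of its hits are not listed in these tables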;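 note: calls also rest on retests at 20 µM and on dose response follow-up; controls were probe without protein and protein plus probe with vehicle; some compounds called inactive have numbers as strong as hits; many hits fall short of the cut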
Target sequence (P11940 whole entry, looked up): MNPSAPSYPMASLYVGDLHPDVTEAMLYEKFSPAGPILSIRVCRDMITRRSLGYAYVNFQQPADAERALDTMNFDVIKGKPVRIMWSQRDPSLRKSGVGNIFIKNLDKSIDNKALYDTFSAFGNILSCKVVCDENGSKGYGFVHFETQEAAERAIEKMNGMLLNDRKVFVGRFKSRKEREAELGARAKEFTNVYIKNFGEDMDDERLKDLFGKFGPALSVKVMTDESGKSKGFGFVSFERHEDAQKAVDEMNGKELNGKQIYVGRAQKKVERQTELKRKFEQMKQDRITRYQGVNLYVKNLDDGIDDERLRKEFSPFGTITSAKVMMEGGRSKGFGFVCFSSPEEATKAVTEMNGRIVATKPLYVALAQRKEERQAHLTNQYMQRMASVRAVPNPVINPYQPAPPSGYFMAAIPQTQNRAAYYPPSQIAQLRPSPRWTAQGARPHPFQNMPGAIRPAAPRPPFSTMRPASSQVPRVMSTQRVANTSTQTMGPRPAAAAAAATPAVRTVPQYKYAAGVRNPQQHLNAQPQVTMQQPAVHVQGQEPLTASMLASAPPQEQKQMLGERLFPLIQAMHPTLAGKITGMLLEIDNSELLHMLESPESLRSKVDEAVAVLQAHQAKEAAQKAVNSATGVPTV
eIF4H inh: human eIF4H binding inhibitors, primary screen, translation initiation inhibitor project, biochemical, uHTS, fluorescence polarization; inhibition, % at 35 µM; actives 0.94% (n = 290,000); Eukaryotic translation initiation factor 4H (Homo sapiens), Q15056; eIF4H fluorescence polarization binding assay;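 active = 50% or more with normal probe brightness, or confirmed in later tests; about a fifth of its hits are not listed in these tables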;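 note: calls also rest on retests at 20 µM and on dose response follow-up; 0% = protein and probe with vehicle and 100% = probe without protein; strong numbers were not always called active; many hits fall short of the cut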
MT1-MMP act inh RFP: second read-out of MT1-MMP act inh, no call of its own (marks repeat the call); RFP signal change, %; measured here: RFP expression control read;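 0 = vehicle wells; hits needed this value within 50% of zero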
Numbers without * were called inactive; i = inactive; / = no result given.

SMILES	Yeast UUG start	MT1-MMP act inh	MT1-MMP act inh RFP	Rce1 inhib	CSC inhib	HIV Env fusion	PABP FP inh	eIF4H inh
C=CCc1ccc(OCC(O)CN2CCN(c3ccccc3OC)CC2)c(OC)c1 (stereo not drawn)	-8.0	1.5	0.4	i	4.3	-9.2	5.7	-10.1
Fc1ccc(-n2nnc(-c3cccnc3Cl)n2)cc1	-22.6	-2.0	-2.0	i	10.2	-158.2	-1.1	-6.1
Cc1cc(C)cc(NC(=O)CCn2c(=S)[nH]c3ccccc3c2=O)c1	-21.3	1.7	-6.2	i	-10.8	-1.1	-17.1	-5.8
O=C1CSC(=S)N1N=Cc1c[nH]c2ccc(Br)cc12	-3.2	-3.2	15.1	/	/	13.3	/	/
COC(=O)c1[nH]c2ccc(C)cc2c1NC(=O)Nc1ccccc1OC	-13.0	2.7	1.2	i	4.0	/	-2.7	-0.7
CC1CCCCN1CC(=O)Nc1cc(S(=O)(=O)N2CCOCC2)ccc1N1CCCC1 (stereo not drawn)	/	-5.2	-1.4	i	-11.4	6.5	8.4	7.5
NNC(=O)CCN(Cc1ccco1)S(=O)(=O)c1ccc(Cl)cc1	/	0.7	-0.5	i	-6.3	2.2	4.1	-7.6
CC(C)(C)NC(=O)Cn1nc(C(F)(F)F)c2c1CCCC2	/	0.5	0.8	i	-3.6	-3.5	0.8	-0.8
CCOC(=O)c1c(NC(=O)OC)sc(C(=O)N(C)C)c1C	/	2.1	-0.2	i	-6.3	/	1.4	-11.7
O=C1C(C=NCCCn2ccnc2)=C(O)c2ccccc21	-12.6	6.0	8.0	/	-6.1	14.3	/	/

7 entries from above, with values under each structure:
Under each structure: Yeast UUG start, MT1-MMP act inh, MT1-MMP act inh RFP, Rce1 inhib, CSC inhib, HIV Env fusion, PABP FP inh, eIF4H inh
Fc1ccc(-n2nnc(-c3cccnc3Cl)n2)cc1
→ -22.6, -2.0, -2.0, i, 10.2, -158.2, -1.1, -6.1
Cc1cc(C)cc(NC(=O)CCn2c(=S)[nH]c3ccccc3c2=O)c1
→ -21.3, 1.7, -6.2, i, -10.8, -1.1, -17.1, -5.8
O=C1CSC(=S)N1N=Cc1c[nH]c2ccc(Br)cc12
→ -3.2, -3.2, 15.1, /, /, 13.3, /, /
COC(=O)c1[nH]c2ccc(C)cc2c1NC(=O)Nc1ccccc1OC
→ -13.0, 2.7, 1.2, i, 4.0, /, -2.7, -0.7
CC1CCCCN1CC(=O)Nc1cc(S(=O)(=O)N2CCOCC2)ccc1N1CCCC1 (stereo not drawn)
→ /, -5.2, -1.4, i, -11.4, 6.5, 8.4, 7.5
NNC(=O)CCN(Cc1ccco1)S(=O)(=O)c1ccc(Cl)cc1
→ /, 0.7, -0.5, i, -6.3, 2.2, 4.1, -7.6
CC(C)(C)NC(=O)Cn1nc(C(F)(F)F)c2c1CCCC2
→ /, 0.5, 0.8, i, -3.6, -3.5, 0.8, -0.8

Following part:
SMILES	Yeast UUG start	MT1-MMP act inh	MT1-MMP act inh RFP	Rce1 inhib	CSC inhib	HIV Env fusion	PABP FP inh	eIF4H inh
Cc1ccc(-n2cc(C(=O)c3cc(Cl)ccc3O)cc(C#N)c2=O)cc1	-9.0	-22.2	-13.4	i	-14.2	-4.1	-3.9	6.2
O=S(=O)(/N=C(/Nc1ccccn1)c1ccccc1)c1ccccc1	-14.1	-1.4	-0.4	i	-10.7	/	-3.0	1.7
COc1ccccc1N(CC(=O)N1CCCC1)S(=O)(=O)c1cc([N+](=O)[O-])ccc1Cl	-29.9	-3.9	-2.1	/	-0.7	/	/	/
Cn1c(N2CCN(C(=O)Nc3ccc(C(F)(F)F)cc3)CC2)nc2ccccc21	/	4.5	-9.8	i	6.3	32.0	-9.1	1.7
CC(=O)N1CCN(S(=O)(=O)c2ccc(C)cc2)C1c1ccc(N(C)C)cc1 (stereo not drawn)	18.7	-2.0	-2.2	i	-1.2	-15.8	1.1	-1.2
C/C(=N\NC(N)=S)C1(C)CC2(CC(C)(C)OC2=O)C(=O)O1 (stereo not drawn)	-14.9	1.1	-2.3	i	-3.2	-1.2	-10.4	-4.7
COCCCNC(=O)CSc1nc2ccccc2c(=O)n1Cc1ccc2c(c1)OCO2	-8.3	-3.2	-4.6	i	2.9	-6.7	-7.1	-6.7
Oc1c(C(c2cccs2)N2CCN(c3ccccc3)CC2)ccc2cccnc12 (stereo not drawn)	/	/	/	/	87.9*	/	-0.3	4.0
CCN(CC)CCN(C(=O)Cn1nnc(-c2ccc(C)o2)n1)C(C(=O)NC(C)(C)C)c1cccs1 (stereo not drawn)	/	-0.7	1.8	i	-4.7	-4.3	1.3	0.9
O=C(CN(CC1CCCO1)C(=O)CNS(=O)(=O)c1ccccc1)NCCc1ccccc1 (stereo not drawn)	-14.2	-3.3	0.9	i	-9.4	2.6	8.6	-2.3
O=C(CCCn1c(=O)c2ccccc2n(CC(=O)NCc2ccco2)c1=O)NCc1ccco1	-4.4	1.7	0.9	i	-12.1	/	2.8	-8.2
CCO[C@H]1OC(C(N)=O)=C[C@@H](c2coc3ccccc3c2=O)[C@@H]1CCCO	-5.4	1.3	5.3	i	-4.4	5.1	1.1	-5.3
O=C(Nc1cccs1)Nc1cccnc1Cl	5.4	0.4	-1.4	i	-7.6	-1.0	18.3	12.3
O=C(NC(Cc1ccc(O)cc1)C(=O)O)c1ccc2c(c1)OCO2 (stereo not drawn)	-15.8	9.0	-2.9	/	-16.7	/	/	/
O=C(Cn1nnc(-c2ccc(F)cc2)n1)N1CCCCC1	-20.2	-6.3	-3.0	i	-11.0	7.0	2.6	4.5
CCCCn1c(=S)[nH]c2ccc(N3CCOCC3)cc2c1=O	/	/	/	i	/	/	-12.1	-3.0
O=C(O)C1CC(=O)n2c(nc3ccccc32)S1 (stereo not drawn)	-21.2	0.7	2.0	i	-4.1	/	-8.1	7.1
Cc1ccccc1CS(=O)(=O)CCC(=O)NCCCN1CCN(c2ccccc2F)CC1	-10.1	-1.7	-1.8	i	4.1	/	0.8	3.1
C=CCn1c(SCC(=O)N2CCC(C)CC2)nc2c([nH]c3ccccc32)c1=O	16.0	1.8	-1.4	/	/	22.5	/	/
Cc1ccccc1-n1c(SCC(=O)NCc2cccs2)nc2ccccc2c1=O	-2.9	0.8	-2.8	i	-6.2	-28.1	-7.4	-14.0
COc1ccccc1OCCC(=O)Nc1ccc2c(c1)OCO2	-6.2	0.5	1.2	/	0.5	/	/	/
Cc1ccc(C)c(C(C)NC(=O)C2CCCC2)c1 (stereo not drawn)	-2.0	-2.2	-3.2	i	-1.1	-45.5	-16.9	6.7
Cc1c(-c2ccccc2Cl)nc2ccccc2c1C(=O)O	/	4.9	4.1	i	-6.1	16.6	5.9	5.8
O=C(O)/C=C/C(=O)NCc1ccccc1	-22.2	-4.2	2.5	i	-11.0	/	3.9	-1.2
O=C1N(S(=O)(=O)c2ccccc2F)C(=O)C2(CCCC2)N1S(=O)(=O)c1ccccc1F	-7.6	2.8	7.6	i	0.2	-14.4	12.6	1.9
O=C(CSc1nnc(-c2ccccc2F)n1C1CCCCC1)Nc1cc(C(=O)O)ccc1Cl	-14.2	-4.9	1.7	/	-1.8	/	/	/
CCOC(=O)Nc1ccc(N2CCOCC2)c(S(=O)(=O)N2CCOCC2)c1	-7.7	-2.4	2.9	i	-9.5	8.5	9.6	1.9
COc1cccc(/C=N/n2c(=S)n(C)c3ccccc32)c1OC	/	3.4	0.8	/	-1.0	-104.3	-7.7	-9.3
O=c1c([N+](=O)[O-])cccn1Cc1cccc(Br)c1	7.1	2.0	2.1	i	-14.5	11.0	-4.6	-5.0
O=C(Oc1cccnc1)c1ccccc1[N+](=O)[O-]	/	3.0	4.8	/	-1.6	8.1	-4.1	1.9
COC(=O)c1c(C(=O)OC)c2ccncn2c1Cl	5.8	1.2	-3.4	i	-1.2	/	4.6	-9.1
COc1ccc(OC)c(-c2csc(NC(=O)Cc3cccs3)n2)c1	-12.8	-6.1	-12.0	i	37.4	-13.7	26.8	2.1
Cn1cc([N+](=O)[O-])c(C(=O)NCc2ccco2)n1	/	-1.1	0.8	i	3.9	3.9	0.1	-15.1
Cc1ncc([N+](=O)[O-])n1CC(=O)Nc1ccccc1	/	0.5	-0.4	i	-11.8	-4.3	24.8	3.5
Cc1cccc(NC(=O)COc2cccc3c2CCN(Cc2ccccc2)C3=O)c1C	/	1.1	-7.6	i	0.1	-2.0	0.5	-9.5
O=C(O)c1ccccc1OCc1ccccc1Br	/	0.4	1.9	i	-3.1	-15.0	23.2	-2.1
Cn1c(NC(=O)c2ccc(C(C)(C)C)cc2)cc(=O)n(C)c1=O	-8.4	6.7	0.6	/	-3.1	9.4	5.5	-9.4
CC(C)(C)C(=O)CN1C2=NCCN2c2ccccc21	/	2.3	6.8	i	-4.6	-1.0	-8.1	-2.6
Cc1cccc(-c2nc3cc([N+](=O)[O-])ccc3o2)c1	-9.3	-0.6	-4.2	i	-0.5	-42.0	-2.9	-4.7
COc1ccccc1C(=O)NCCC(=O)Nc1cccc(C)n1	-4.4	0.0	5.4	i	-7.2	-5.9	-4.6	2.0
COc1ccc(CN(C)C(=O)CC(c2ccccc2)c2ccccc2)cc1	2.1	-6.1	-11.4	i	-0.5	11.5	-7.1	-0.3
CCOc1ccc(NC(=O)c2cn(CC(C)C)c(=O)c3c2c2ccccc2n3C)cc1	-17.2	0.0	-1.2	i	-3.6	-34.8	5.4	6.2
C=CCn1c(COc2ccccc2F)nnc1SCC(=O)c1c[nH]c2ccccc12	-13.5	-1.0	-7.3	i	0.5	/	2.9	4.8
Cn1c(Cn2nnc3ccccc32)nnc1SCC(=O)N1c2ccccc2CCc2ccccc21	-3.5	-2.8	-2.9	i	-19.3	/	-9.3	-4.8
COc1ccc(C2C3=C(CC(C)(C)CC3=O)N(C)C3=C2C(=O)CC(C)(C)C3)cc1OC	2.5	0.3	0.9	i	-17.3	8.5	-1.3	4.6
CCC(C)c1ccccc1NC(=S)NC(=O)c1ccco1 (stereo not drawn)	-25.4	-0.3	-1.7	i	-44.6	-9.0	-16.1	-17.8
COc1ccc2cc(C(=O)N3CCN(c4ccc(F)cc4)CC3)[nH]c2c1	-3.9	4.4	0.1	i	-3.6	1.0	-6.3	-3.7
Nc1cc(N)nc(SCC(=O)NCc2ccc3c(c2)OCO3)n1	-17.1	0.5	-0.5	/	-13.6	-8.0	/	/
O=C(Nc1ccc2c(c1)OCO2)Nc1ccccc1F	-15.5	0.7	-2.0	i	29.4	-110.0	-15.1	-14.3
Cc1ccc(N2CCN(C(=O)NC3CCCCC3)CC2)c(C)c1	-0.8	2.1	-6.1	i	6.5	-8.3	-6.6	3.1
The list goes on.
SMILES	Yeast UUG start	MT1-MMP act inh	MT1-MMP act inh RFP	Rce1 inhib	CSC inhib	HIV Env fusion	PABP FP inh	eIF4H inh
CS(=O)(=O)N1N=C(c2ccco2)CC1c1cccc([N+](=O)[O-])c1 (stereo not drawn)	/	-2.4	1.5	i	-5.2	2.0	3.3	4.8
CN(c1ccccc1)c1nc(N)c([N+](=O)[O-])c(NCc2ccco2)n1	/	-0.1	-5.9	i	-3.4	/	0.2	3.9
COc1cccc(OCc2cc(C(=O)NCc3cnc4ccccn34)no2)c1	-10.1	-3.8	-25.9	i	-2.2	1.8	-5.5	1.4
O=C(Nc1cccc2c(=O)[nH][nH]c(=O)c12)c1ccc([N+](=O)[O-])cc1	-18.0	3.6	1.6	/	/	-76.8	/	/
O=C(CSc1nc2ccccc2[nH]1)c1cccs1	-28.7	2.1	-2.4	i	6.5	-86.1	-11.9	4.3
Cc1noc(C)c1S(=O)(=O)N1CCCC(C(=O)c2cccc(OC(C)C)c2)C1 (stereo not drawn)	/	3.0	-3.3	i	9.1	15.6	-1.0	-8.3
CC1(c2ccc3ccccc3c2)NC(=O)N(CC(=O)N2CCC(C(N)=O)CC2)C1=O (stereo not drawn)	/	-5.4	2.5	i	-12.4	2.5	/	/

This is a subset. The share of hits here may be higher or lower than overall.
